Mtb H37Rv: M. tuberculosis H37Rv growth inhibitors, H37Rv strain (AID 1626); inhibition, % at 10 µM; hits with a dose series show IC50 in µM; M. tuberculosis H37Rv growth inhibition; higher % means a stronger effect; actives 0.95% (n = 220,000);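 active = confirmed in a dose series; inconclusive = inhibition above 80% but not taken into the dose series; inactive = below 80% or under 30% at every dose of the series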;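 also: bacteria incubated seven days before Alamar blue readout; 0% = bacteria only wells and 100% = bacteria with antibiotic wells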
Mtb betalactam: beta-lactam sensitization of Mtb H37Rv. actives 0.27% (n = 330,000). AID 434955. inhibition, % at 25 µM. M. tuberculosis H37Rv growth with meropenem, percent inhibition; hits of this screen are not shown here;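 active = about 74% or more and at least 40 points above the plate without the antibiotic, then above 30% in a dose series; inconclusive = first-round hits that could not be retested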;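 also: growth measured after seven days incubation then overnight dye step; 0% = bacteria only wells and 100% = bacteria with antibiotic; twin plates without the antibiotic show which effects depend on it; some results filed as inactive read as strong as hits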
Arbovirus anti: blocks arbovirus infection. arbovirus infection cell-based antiviral screen. inhibition, % at 10 µM. actives 0.37% (n = 200,000). AID 1251;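 active = inhibition from about 30%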;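 also: bluetongue infection of BSR cells; cell survival read as ATP light after 72 h; 0% = infected wells without compound and 100% = uninfected wells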
YopH inh: inhibitors of Yersinia enterocolitica YopH tyrosine phosphatase; inhibition, %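 (about 10 µM by stock and volumes)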; fluorescence Ex485/Em525; actives 0.16% (n = 140,000);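 active = inhibition of 50% or more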;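 also: controls were vehicle for no effect and minimum signal wells for full effect; inactives centre near -20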
RecA splice inh: blocks M. tuberculosis RecA intein splicing. P9WHJ3. cell-free RecA intein splicing, fluorescence. inhibition, %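 (about 9 µM by stock and volumes)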. actives 0.75% (n = 290,000). AID 2221; in the data active = inhibition above about 30%; inconclusive = no clear call, values can overlap the other calls;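 also: 0% = vehicle wells and 100% = reference inhibitor control wells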
Target sequence (P9WHJ3 whole entry, looked up, canonical isoform): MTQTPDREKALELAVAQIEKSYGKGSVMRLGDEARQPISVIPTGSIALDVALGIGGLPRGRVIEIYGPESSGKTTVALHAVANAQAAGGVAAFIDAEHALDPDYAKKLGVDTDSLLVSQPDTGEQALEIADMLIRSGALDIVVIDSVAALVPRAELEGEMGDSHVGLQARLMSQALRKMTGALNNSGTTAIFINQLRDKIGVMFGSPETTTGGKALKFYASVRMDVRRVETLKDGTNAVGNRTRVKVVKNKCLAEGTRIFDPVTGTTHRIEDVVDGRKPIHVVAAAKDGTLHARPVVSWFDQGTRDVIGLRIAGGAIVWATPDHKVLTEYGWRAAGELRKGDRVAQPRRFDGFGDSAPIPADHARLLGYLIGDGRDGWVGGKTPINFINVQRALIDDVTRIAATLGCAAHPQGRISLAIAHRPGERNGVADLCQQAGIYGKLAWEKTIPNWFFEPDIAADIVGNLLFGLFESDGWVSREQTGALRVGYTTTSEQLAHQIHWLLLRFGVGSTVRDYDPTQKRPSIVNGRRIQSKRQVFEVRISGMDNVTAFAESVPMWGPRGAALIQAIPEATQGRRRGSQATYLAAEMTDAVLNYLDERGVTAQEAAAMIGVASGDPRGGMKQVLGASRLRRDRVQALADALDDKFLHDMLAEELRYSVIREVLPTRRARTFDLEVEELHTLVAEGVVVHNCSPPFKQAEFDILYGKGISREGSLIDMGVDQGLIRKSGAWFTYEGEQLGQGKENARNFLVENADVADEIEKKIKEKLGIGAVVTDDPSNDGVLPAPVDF
Arbovirus anti repeat: second read-out of Arbovirus anti, no call of its own (marks repeat the call); inhibition, %; measured here: 10K subset replicate screen; many hits read low in the repeat;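 first of two repeat runs on a subset; 0% = infected and 100% = uninfected wells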
The depositor's hits bear a star; u = inconclusive; x = not tested or not shown. The list is partial; rates above refer to the full screens.

SMILES	Mtb H37Rv	Mtb betalactam	Arbovirus anti	YopH inh	RecA splice inh	others
NC(=O)c1ccccc1NC(=O)NC1CCCCC1	-4%	-12	0	6	-0.7
CC(=O)Nc1ccc(S(=O)(=O)c2ccc(N)cc2)cc1N	-4%	-3	2	-13	-0.6	Arbovirus anti repeat=3
O=CN1CCCN(C(=O)CC2C(=O)NCCN2Cc2cccc(Oc3ccccc3)c2)CC1 (stereo unspecified)	x	1	x	x	-1.3
Cc1cc(OC(=O)c2cc(F)c(F)cc2Cl)nc(C)n1	-4%	15	-8	-87	0.0
O=C(COC(=O)/C=C/c1cccs1)NC(=O)Cc1ccccc1	16%	1	4	x	0.5
O=C(Cn1cnc2ccccc21)NCc1ccccc1	-3%	1	0	-5	0.4
CC(NC(=O)c1cc(-c2cccnc2)nc2ccc(Br)cc12)C1CCCO1 (stereo unspecified)	x	-5	x	x	2.8
O=S(=O)(c1ccc(F)cc1)N1CCN=C1SCc1cccc(F)c1	x	10	x	x	4.9
CCOC(=O)COc1ccccc1/C=C1\NC(=O)NC1=O	-5%	-2	2	x	0.3
CCOC(=O)N/N=C\C=C\c1ccc2c(c1)OCO2	0%	-3	-1	-26	-2.7
Nc1ccc(Nc2ccccc2)c(Cl)c1	u	98	-10	-29	-1.8	Arbovirus anti repeat=-9
O=C(COc1ccccc1)N1CCN=C1c1ccccc1	6%	-7	3	-40	-1.1
O=C(COC(=O)C1CCN(S(=O)(=O)c2cccs2)CC1)Nc1ccccc1Br	-7%	4	0	x	4.1
O=C(O)Cn1c(=O)c2c3c(sc2n(Cc2ccccc2)c1=O)CCCC3	x	-7	x	x	-1.2
COc1ccc(Br)cc1/C=N/n1nnnc1N	x	2	x	x	0.3
O=C(CSc1nnc(C2COc3ccccc3O2)o1)N1CCCc2ccccc21 (stereo unspecified)	20%	-2	-1	-8	7.0
CCOC(=O)COc1ccc(S(=O)(=O)NCc2cccnc2)cc1	0%	0	10	13	0.8
COc1ccccc1C1=NOC(COc2ccc3c(C)cc(=O)oc3c2)C1 (stereo unspecified)	2%	7	x	x	0.5
CC1CCN(c2ccc3nnc(CCC(=O)Nc4cccc(F)c4)n3n2)CC1	x	4	x	x	1.1
CCOC(=O)c1c(NC(=O)/C=C/C(=O)O)sc(C)c1-c1ccc(Cl)cc1	-4%	-4	-22	x	3.9
O=C(NCCC1=CCCCC1)C(c1ccccc1)c1ccccc1	0%	0	5	-40	-0.5
CCC(C)(C)NC(=O)CN(C(=O)c1snc(C(N)=O)c1N)c1ccc2nc(C)sc2c1	2%	0	3	x	-1.7
COc1ccccc1CN1C(=O)[C@@H]2Cc3c([nH]c4ccccc34)C(C)(C)N2C1=O	-6%	-8	x	x	1.2
CC(=O)N1CCc2cc(S(=O)(=O)CCC(=O)NCCc3ccccc3)ccc21	x	0	x	x	-0.5
Cc1cc(C)n(C(=O)c2ccc([N+](=O)[O-])cc2N)n1	-10%	1	-2	x	-2.1
c1ccc(CNc2nc3ccccc3[nH]2)cc1	1%	2	-8	-36	2.4	Arbovirus anti repeat=-10
O=C(C1CCN(S(=O)(=O)c2cccc3nsnc23)CC1)N1CCn2c1nc1ccccc12	x	-1	15	-26	-1.1
CCNC(=S)N/N=C/c1sc(N2CCCCC2)nc1-c1cccs1	-4%	-2	-9	-21	-55
COc1ccc(N(CC(=O)NC2CC3CCC2C3)S(=O)(=O)c2ccccc2)cc1Cl (stereo unspecified)	x	7	x	x	6.1
O=C(Nc1ccccc1N1CCOCC1)c1ccc([N+](=O)[O-])o1	x	100	x	x	-2.6
COc1cc2[nH]c3c(c2cc1OC)CCN1CCCC[C@@H]31	-5%	-7	x	x	-13
CSc1nc2[nH]ncc2c(=O)[nH]1	-3%	7	0	-2	-1.4
CCOC(=O)CSc1nc2cc(C(=O)OC)ccc2c(=O)n1CCN1CCOCC1	15%	5	10	-33	5.4
Clc1cccc(C2=NOC(c3nnc(-c4ccccc4)o3)C2)c1 (stereo unspecified)	-3%	-5	x	x	-1.9
Cc1ccc(/C=N/NC(=O)CNC(=O)COc2ccccc2)cc1	-5%	0	2	-30	1.1
COc1ccccc1-n1cc(-c2ccccc2)c2c(=S)nc[nH]c21	x	-4	x	x	8.6
Oc1cccc(/C=N/N=C/c2cccc(O)c2O)c1O	x	10	x	x	-12
CC(Sc1nc(N)cc(=O)[nH]1)C(=O)Nc1sc2c(c1C#N)CCCC2 (stereo unspecified)	-5%	9	1	x	x
CCCCNc1nc(Cl)nc(Nc2ccc(C)cc2)n1	x	-7	x	x	0.4
CCC1(C)Cc2ccccc2-c2nc(NCCCO)n(-c3ccccc3)c(=O)c21 (stereo unspecified)	2%	15	12	7	5.2
CC(=O)Oc1ccc2c(=O)c(-c3ccccc3)c(C)oc2c1	7%	-11	-8	x	8.2	Arbovirus anti repeat=1
Cc1ccc(NC(=S)N/N=C/c2c(C)[nH]c3ccccc23)cc1	14%	9	-30	x	0.2
CCOC(=O)[C@]1(C#N)[C@@H]2C=CC(C(N)=O)=CN2[C@@H](C(N)=O)[C@@H]1c1ccc(F)cc1	-19%	-3	x	x	-5.9
COCCCNC(=O)/C=C/c1ccc(OCc2c(F)cccc2Cl)cc1	11%	19	16	x	-0.1
CS(=O)(=O)N(CC(=O)NCCSCc1ccccc1)c1ccccc1Cl	x	-6	x	x	-0.1
COc1ccc(NC(=O)NCCCN2CCCCC2C)cc1 (stereo unspecified)	x	-6	0	-41	-0.4
COc1ccc(C2(C(F)(F)F)NC(=O)N(C)C(=O)N2C)cc1 (stereo unspecified)	-3%	-12	1	-11	2.6	Arbovirus anti repeat=6
CC(C)(C)OC(=O)N[C@@H](Cc1ccccc1)C(=O)NCC1CCC(C(=O)O)CC1 (stereo partly specified)	-7%	-7	x	x	0.3
O=C(Nc1cc(N2CCOCC2)ncn1)c1ccccc1	0%	4	-3	-4	-2.1
Cc1oc2c(C)c3oc(=O)c(CCC(=O)N4CCC(C(=O)NCCC(=O)O)(c5ccccc5)CC4)c(C)c3cc2c1C	x	-3	x	x	-22

A stretch of the results above, as a working copy:
SMILES	Mtb H37Rv	Mtb betalactam	Arbovirus anti	YopH inh	RecA splice inh	others
COCCCNC(=O)/C=C/c1ccc(OCc2c(F)cccc2Cl)cc1	11%	19	16	x	-0.1
CS(=O)(=O)N(CC(=O)NCCSCc1ccccc1)c1ccccc1Cl	x	-6	x	x	-0.1
COc1ccc(NC(=O)NCCCN2CCCCC2C)cc1 (stereo unspecified)	x	-6	0	-41	-0.4
COc1ccc(C2(C(F)(F)F)NC(=O)N(C)C(=O)N2C)cc1 (stereo unspecified)	-3%	-12	1	-11	2.6	Arbovirus anti repeat=6
CC(C)(C)OC(=O)N[C@@H](Cc1ccccc1)C(=O)NCC1CCC(C(=O)O)CC1 (stereo partly specified)	-7%	-7	x	x	0.3
O=C(Nc1cc(N2CCOCC2)ncn1)c1ccccc1	0%	4	-3	-4	-2.1
Cc1oc2c(C)c3oc(=O)c(CCC(=O)N4CCC(C(=O)NCCC(=O)O)(c5ccccc5)CC4)c(C)c3cc2c1C	x	-3	x	x	-22

Additional results
SMILES	Mtb H37Rv	Mtb betalactam	Arbovirus anti	YopH inh	RecA splice inh	others
COc1cccc(C2C(C#N)=C(N)Oc3cc(C)oc(=O)c32)c1OC (stereo unspecified)	5%	9	7	-29	-0.6
CC(C)C1OC(c2cccc(NC(=O)c3cccs3)c2)OCC1(C)C (stereo unspecified)	3%	3	-23	x	8.7
O=C(Nc1cc(Cl)ccc1N1CCOCC1)c1ccc(Br)o1	x	3	x	x	-0.4
CN(C)/C=C/c1onc(-c2ccccc2Cl)c1C#N	x	6	-11	x	4.0
CC1CCCC(NC(=O)CCn2c(=O)oc3ccccc32)C1C (stereo unspecified)	3%	-1	2	-19	-0.8
CSc1cccc(NC(=O)NNC(=O)C2CCN(S(=O)(=O)N(C)C)CC2)c1	x	3	x	x	-1.9
Cc1ccc(S(=O)(=O)n2cccc2CO)cc1	x	0	x	x	-2.1
CN1CCN(CC(O)c2ccccc2)CC1 (stereo unspecified)	77%	-4	5	-44	-0.2
O=C1/C(=C\c2ccccn2)SC(=S)N1Nc1ncc(C(F)(F)F)cc1Cl	2%	3	4	-12	19
Cc1cccc(NC(=O)CCSc2ccccc2)c1C	1%	11	1	x	0.5
N#C/C(=C\c1cc([N+](=O)[O-])c(N2CCOCC2)cc1N1CCOCC1)c1nc2ccccc2[nH]1	2%	55	-12	6	-0.4
Nc1ccccc1Nc1cc(-c2cccc(Cl)c2)nn1-c1ccccc1	8%	13	-34	-28	22
Cc1cc2cc(CNC(=O)c3ccc(S(=O)(=O)N4CCCCC4)cc3)ccc2n1C	11%	3	0	-19	6.8	Arbovirus anti repeat=0
COc1ccc(/C(N)=N/O)c(OC)c1	0%	1	3	x	-1.6
CCSc1nnc(NC(=O)C2C3C=CC(C3)C2C(=O)O)s1 (stereo unspecified)	0%	-12	4	-17	0.6
Cc1nnc(Sc2cc(C(=O)NCCCN(C)Cc3ccccc3)c3ccccc3n2)s1	4%	-2	-15	-19	-6.5
O=C1[C@H]2[C@@H](C(=O)N1c1cccc3ccccc13)C1(C(=O)c3ccccc3C1=O)N1CCC[C@@H]21	2%	0	-7	-16	2.0
Cc1cccc(N(C(=O)CCC(=O)Nc2cc(C)on2)C(C(=O)NC2CCCC2)c2cccnc2)c1 (stereo unspecified)	x	-5	x	x	0.1
Cc1ccc(S(=O)(=O)N(C)C)cc1NC(=S)NNC(=O)C1CC1	3%	-8	-9	-24	-2.6
COC(=O)C(C)Sc1nc2c(cnn2-c2ccc(Cl)cc2)c(=O)[nH]1 (stereo unspecified)	x	2	x	x	-0.2
FC(F)(F)c1ccc2c(c1)C1C=CCC1C(c1ccncc1)N2 (stereo unspecified)	1%	x	2	x	8.4
Cc1ccc(C)c(Nc2nc(-c3cccnc3)cs2)c1	x	34	x	x	2.3
NNC(=O)C1CC1(c1ccccc1)c1ccccc1 (stereo unspecified)	20%	5	x	x	6.4
Cc1[nH]n(-c2ccccc2)c(=O)c1C(=O)Nc1ccccc1	x	-4	x	x	4.0
Cn1cc(C(=O)c2ccc(Cl)cc2Cl)cc1C(=O)N/N=C(\N)COc1ccc(F)cc1	-4%	0	-17	-20	9.3
O=C(Nc1cccc(-c2csc(-c3ccccc3)n2)c1)c1cccs1	-2%	2	-38	-1	14
O=C(c1ccccc1)c1cccc(NC(=O)c2ccc(Br)o2)c1	7%	-1	-25	-4	10
O=C(N/N=C1/CC2C=CCC12)c1ccco1 (stereo unspecified)	0%	-1	2	-19	0.9
Clc1cc(-c2ccc(/C=N/n3cnnc3)o2)ccc1Br	92%	84	1	x	1.7
Cc1cc(C)cc(C(=O)OCC(=O)NCCNC(=O)COC(=O)c2cc(C)cc(C)c2)c1	x	0	x	x	1.3
COc1ccc(C(=O)Cn2c(NCCO)nc3ccccc32)cc1OC	-7%	-1	3	4	-1.5
CCOC(=O)[C@@H]1[C@H]2COc3ccccc3[C@@H]2N2C(=O)N(c3cccc(Cl)c3)C(=O)[C@@]12C	x	9	x	x	8.5
Cc1cccc(N2C(=O)CC(Sc3ccccc3C(=O)O)C2=O)c1 (stereo unspecified)	2%	-2	-3	-16	-3.6
CCc1noc(C)c1C(=O)Nc1ccc(C#N)cc1	x	0	x	x	-0.6
O=C(CC(c1ccccc1)c1cc(Br)ccc1O)N1CCCC1 (stereo unspecified)	-6%	4	1	x	8.0
O=C(NC(=S)NCCN1CCOCC1)c1ccccc1	-16%	-6	5	-24	1.1
COc1ccc(OCC(=O)Nc2ccccc2N2CCCCC2)cc1	x	85	x	x	21
Cc1ccc(C)c(NC(=O)CSc2nnc(CCNC(=O)OC(C)(C)C)o2)c1	-4%	-14	4	-22	-0.3
CC1(C)CC(=O)C=C(c2cc3ccccc3s2)C1	9%	19	x	x	1.6
O=C(COC(=O)c1ccc(F)cc1F)Nc1ncccn1	-9%	-7	x	x	4.0
CCOc1ccc(NC(=O)c2ccccc2O)cc1	6%	27	15	-29	-5.2
c1ccc2c(-c3nn[nH]n3)cccc2c1	-4%	-1	3	-34	0.3
COCc1ccc(C(=O)N2CCCC(Nc3ccc(C(C)C)cc3)C2)s1 (stereo unspecified)	x	10	x	x	0.0
CCOc1ccccc1N1CCN(C(=O)NCc2ccc(Cl)cc2)CC1	x	6	x	x	0.2
O=C(Cc1ccccc1)Nc1nnc(-c2cccs2)s1	x	3	-6	9	-1.8
O=C(CN1CCC(c2nc3ccccc3[nH]2)CC1)Nc1ccc2c(c1)OCO2	1%	2	-8	-47	x
Cc1ccc(C(=O)N/N=C2\SCC(=O)N2c2cc(C)ccc2C)cc1	-5%	-3	1	-12	-2.4
COc1ccc(NC(=S)N/C(=N/S(=O)(=O)c2ccc(C)cc2)c2ccccc2)cc1	-6%	-1	-1	x	3.2

High-throughput results from PubChem.
